Bioassay records deposited in PubChem BioAssay by National Center for Advancing Translational Sciences (NCATS).
TRPML1 blocker = qHTS for Inhibitors of the Human Mucolipin Transient Receptor Potential 1 (TRPML1) | Mucolipin-1 (Homo sapiens), Q9GZU1 | TRPML1-inducible cells, Ca2+ dye fluorescence, FDSS; stronger effect = lower value; inhibition of EC80 agonist-evoked calcium signal | activity change, negative = inhibition, % (test concentration not listed) | 0.02% of 390,000 active | AID 624415, 2012; in the data active means activity change below about -50%; inconclusive means about -30% to -50%; inactive means above about -30%;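 note: stimulus is agonist 54-4 at its EC80 concentration; % is set by controls: 0 for no effect and ±100 for the full control effect; compound concentration not given in the record; the text of the record puts the active cut at -80%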
Target sequence (Q9GZU1 whole entry, looked up): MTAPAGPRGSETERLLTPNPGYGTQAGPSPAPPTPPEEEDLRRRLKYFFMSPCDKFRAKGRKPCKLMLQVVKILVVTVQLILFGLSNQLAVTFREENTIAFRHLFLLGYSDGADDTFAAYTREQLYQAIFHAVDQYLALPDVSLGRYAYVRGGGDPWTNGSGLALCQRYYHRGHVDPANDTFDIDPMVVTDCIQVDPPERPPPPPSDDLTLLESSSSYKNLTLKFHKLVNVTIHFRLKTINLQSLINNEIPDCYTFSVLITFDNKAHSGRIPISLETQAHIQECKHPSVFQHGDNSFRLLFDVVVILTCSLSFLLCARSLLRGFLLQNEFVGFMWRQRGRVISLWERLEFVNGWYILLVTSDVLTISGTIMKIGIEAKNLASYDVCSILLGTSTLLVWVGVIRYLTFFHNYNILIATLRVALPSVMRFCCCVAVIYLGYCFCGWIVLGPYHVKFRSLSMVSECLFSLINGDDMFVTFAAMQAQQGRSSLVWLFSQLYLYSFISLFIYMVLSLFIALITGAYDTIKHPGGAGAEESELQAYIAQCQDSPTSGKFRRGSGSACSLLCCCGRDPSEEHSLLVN
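Calcium fluorescence in TRPML1-DL cells induced overnight with Tet: a 110 s read after compound pin addition, then a 110 s antagonist read after challenge with 54-4 at 4 uM final (EC80).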
gsp agonist = qHTS for Agonist of gsp, the Etiologic Mutation Responsible for Fibrous Dysplasia/McCune-Albright Syndrome: qHTS; gsp mutant cells, cAMP HTRF, 30 min; control for the full effect not named in the record; AID 624287, 2012; 0.13% of 340,000 active; Potency, µM (top dose mostly 76.9 µM), without a hit: at the highest dose activation (cAMP increase), hits mostly activators; active = well fitted activation curve with a large enough effect; inconclusive = small, poorly fitted or top-dose-only effect, or another doubt; inactive = no such curve, though single readings can be large or run the other way; cell line not stated here;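 note: phosphodiesterase inhibitor Ro 20-1724 added with compounds to block cAMP breakdown; potency is the fitted concentration of half-maximal effect; nearly all actives have a fitted effect of over 60% in size; about a fifth of the inactives were tested at one dose only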
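Cells stably selected in G418 were plated at 2000/well, grown 16-24 hr, then given compounds in DMSO with the PDE inhibitor […] (300 uM solution added) for 30 min at 37C; cAMP was read by HTRF.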
gsp antag = qHTS for Antagonists of gsp, the Etiologic Mutation Responsible for Fibrous Dysplasia/McCune-Albright Syndrome: qHTS | 0.4% of 340,000 active | AID 624288, 2012 | Potency, µM (doses to about 76.9 µM), without a hit: at the top dose activity change, negative = inhibition, hits mostly inhibitors | gsp-mutant cells, cAMP HTRF, 30 min; control for the full effect not named in the record; active = falling curve of any shape with a large fitted effect; inconclusive = falling curve, mostly with a smaller effect; inactive = flat or rising curve; cell line not stated here;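 note: intracellular cAMP measured with PDE inhibitor Ro 20-1724 present during compound exposure; potency is the fitted concentration of half-maximal effect; % is set by controls: 0 for no effect and ±100 for the full control effect; nearly all actives have a fitted effect of over 65% in size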
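Cells in G418 medium, seeded 16-24 h, 37C; buffer exchange to DPBS + 1 mM CaCl2, 0.5 mM MgCl2, 0.05% BSA; cpds in DMSO + […] (300 uM stock), 30 min 37C; HTRF cAMP detection.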
TRPML1 ag = qHTS for Agonists of the Human Mucolipin Transient Receptor Potential 1 (TRPML1); Mucolipin-1 (Homo sapiens), Q9GZU1; TRPML1-expressing cells, Ca2+ dye fluorescence, FDSS; host cell line not named in the record; reference of the full effect not given here; activation, % (test concentration not listed); 0.12% of 410,000 active; AID 624414, 2012; in the data active = activation above about 50%; inconclusive = about 30% to 50%; inactive = below about 30%; note: 0% is about no effect; the text of the record puts the active cut at 80%
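In this qHTS format, compounds were pin-transferred onto Ca8-dye-loaded TRPML1-DL cells induced with Tet overnight, and intracellular Ca2+ fluorescence was recorded kinetically for 110 s after a 10 s baseline. A subsequent 4uM final 54-4 (EC80) addition followed by a second 110 s read served as the antagonist phase.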
ClpP mod = qHTS Assay for Activators of ClpP. 1.9% of 340,000 active. Potency, µM (titrated, usually from 57.5 µM), inactives show at the highest dose activity change, negative = active. purified B. subtilis ClpP, FRET peptide cleavage, 20 min; active = well fitted falling curve with a large enough effect; inconclusive = small, poorly fitted or top-dose-only effect; inactive = no such curve, though single readings can be large or run the other way; note: potency is the fitted concentration of half-maximal effect; the source files actives as falling curves though it sought activators and does not explain the sign; nearly all actives have a fitted effect of over 65% in size; many hits overshoot -100%
Target sequence (P80244 whole entry, looked up): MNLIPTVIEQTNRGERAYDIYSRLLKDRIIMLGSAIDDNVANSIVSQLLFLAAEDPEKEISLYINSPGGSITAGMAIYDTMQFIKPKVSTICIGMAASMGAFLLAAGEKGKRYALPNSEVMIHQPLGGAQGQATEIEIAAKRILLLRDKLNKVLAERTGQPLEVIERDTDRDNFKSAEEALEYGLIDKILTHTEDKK
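Buffer: 100 mM Tris/HCl pH8, 100 mM KCl, 0.05% low protease BSA, 2.5% glycerol, 0.01% Tween-20. ClpP 10 microg/mL final; 20 min RT; delta FRET normalized to ADEP and DMSO controls.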
Menin-MLL FL inh = qHTS Assay for Inhibitors Targeting the Menin-MLL Interaction in MLL Related Leukemias: Competition With Fluorescein Labeled MLL-derived Peptide | Fluorescence polarization, fluorescein-MLL peptide displacement from menin | FP activity change, % at 61.4 µM | 290,000 tested, under 10 active | AID 1766, 2009; inconclusive = falling polarisation curve, or a change in total fluorescence; inactive = total fluorescence flat and polarisation flat or rising; no compound was filed as active; the % refers to the polarisation; negative = inhibition;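 note: % of control where 0% means no effect; inhibitors lower the polarisation; unlabelled MLL peptide was the positive control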
Active calls of the source: *; ? = inconclusive; / = no result given; [ ] = another dose, or the depositor's remark.

SMILES	TRPML1 blocker	gsp agonist	gsp antag	TRPML1 ag	ClpP mod	Menin-MLL FL inh
CCn1nc(NC(=O)c2ccco2)c2cc3ccc(C)cc3nc21	-6	17%	-17%	2.5	-4.3%	4.3
COC(=O)c1ccc(NCC(=O)Nc2cc(C)cc(C)c2)cc1	7	17%	1%	0.0	-1.5%	7.6
O=C(CCCCCN1C(=O)c2ccccc2C1=O)Nc1ccc2c(c1)OCCO2	4	-24%	-4%	-0.6	0.4%	-0.3
COc1cc(S(=O)(=O)n2ccnc2C(C)C)ccc1Br	-7	/	/	0.4	0.5%	/
CC1(C)CCN(Cc2ccccc2)C1CC#N (centres undefined)	-7	-2%	4%	0.8	-4.0%	2.2
O=C(O)CCC(C(=O)O)n1c(O)c(C2=c3ccccc3=NC2=O)sc1=S (centres undefined)	-1	-2%	-7%	-0.4	-0.7%	3.7
CCC(=O)Oc1ccc(C/C(=N\O)c2ccc(O)cc2O)o1	6	-20%	5.6µM*	3.6	-0.1%	6.6
COc1ccc(N=Cc2cc3c(cc2O)OC(N)=C(C#N)C3c2ccccc2)cc1 (centres undefined)	29	?	?	4.6	-5.5%	?
CCN1CCN(CCCNC(=O)Cn2c(-c3cccs3)cc3ccccc32)CC1	6	/	/	1.4	10µM*	/
CCc1nnc(NC(=O)c2cccc(C(=O)Nc3nnc(CC)s3)n2)s1	-12	2%[15.4 µM]	1%	1.4	1.9%	0.5
Fc1ccccc1/C=N/n1c(COc2ccccc2)n[nH]c1=S	5	24%[15.4 µM]	-41%	-0.5	-1.9%	0.3
Cc1nnc(SCc2ccccn2)n(N)c1=O	4	-9%[15.4 µM]	3%	0.0	/	-2.5
CCc1c(C)nc2nc(SCc3ccccc3Cl)[nH]n2c1=O	-16	-13%	-34%	0.8	/	-2.0
CCCS(=O)(=O)NC(=O)C1(C)CCCN(C(=O)/C=C/c2ccccc2)C1 (centres undefined)	-9	/	/	0.2	0.1%	/
C1CCCCCC(=NNc2nn[nH]n2)CCCCC1	-10	3%[15.4 µM]	10%	0.2	/	-0.2
O=C(N=C1SC2CS(=O)(=O)CC2N1c1cccc(F)c1)C1CC1 (centres undefined)	-19	21%	-2%	1.2	-1.2%	-9.2
N#Cc1cc(-c2ccccc2)nnc1Sc1ccc(Cl)cc1	58	8%	-3%	4.0	-7.2%	0.3
O=C(O)CCc1nc(-c2cccs2)no1	12	-11%	9%	1.5	-3.4%	0.4
Cc1c(C(=O)OCC(=O)NCc2ccc3c(c2)OCO3)cccc1[N+](=O)[O-]	10	25%	7%	1.1	-1.2%	1.0
CC1(CO)COC(c2ccccc2)=N1 (centres undefined)	/	5%	11%	/	-1.9%	-0.9
COc1ccc2c(c1)[nH]c1c(=O)n(CC3CCCO3)cnc12 (centres undefined)	23	-39%[inhibitor]	9%	0.4	?	-1.5
O=C(NC1CCCC1)C1c2ccccc2C(=O)N1CCCN1CCOCC1 (centres undefined)	2	29%	13%	0.0	-1.7%	-1.7
Cc1ccc(-n2c(=O)c3c(c4cc(C)ccc4n3C)n(CC(=O)Nc3ccc(F)cc3)c2=O)cc1	23	/	/	1.4	?	/
O=[N+]([O-])c1ccc(CN2C=NS(=O)(=O)c3ccccc32)cc1	-6	-27%	-3%	0.1	/	-2.2
CC(C)c1ccc(C(=O)OCC(=O)c2c(N)n(C)c(=O)n(C)c2=O)cc1	3	2%	-20%	0.5	-3.5%	/
COc1ccc(NC(=O)C2CCCN(C(=O)c3ccc(Cl)cc3)C2)cc1Cl (centres undefined)	-2	-2%	?	-0.6	2.0%	/
COc1ccc(S(=O)(=O)N(CC(=O)N/N=C/c2ccc(C(=O)O)cc2)Cc2ccccc2)cc1OC	8	-2%	1%	-0.6	/	6.0
C=CCNC(=O)c1ccc(NC(=O)C2=CSCCO2)cc1	-8	-8%	6%	0.1	-6.0%	1.2
Cc1ccc(-n2c(SCc3nnc4n3CCC4)nnc2-c2ccccc2)cc1	40	12%	-16%	-0.2	0.3%	3.7
Cc1c(Cl)cnc(NC(=O)CSc2nncs2)c1Cl	8	8%	1%	-0.1	-2.4%	11

Random excerpt: three records from the list.
SMILES	TRPML1 blocker	gsp agonist	gsp antag	TRPML1 ag	ClpP mod	Menin-MLL FL inh
COc1ccc(NC(=O)C2CCCN(C(=O)c3ccc(Cl)cc3)C2)cc1Cl (centres undefined)	-2	-2%	?	-0.6	2.0%	/
COc1ccc(S(=O)(=O)N(CC(=O)N/N=C/c2ccc(C(=O)O)cc2)Cc2ccccc2)cc1OC	8	-2%	1%	-0.6	/	6.0
Cc1ccc(-n2c(SCc3nnc4n3CCC4)nnc2-c2ccccc2)cc1	40	12%	-16%	-0.2	0.3%	3.7

The listing continues:
SMILES	TRPML1 blocker	gsp agonist	gsp antag	TRPML1 ag	ClpP mod	Menin-MLL FL inh
COC(=O)c1ccccc1NS(=O)(=O)c1ccc2c(c1)oc(=O)n2C	3	-2%	6%	0.1	1.3%	-2.0
CC(C)(C)c1ccc(C(=O)Nc2nnc(C3=COCCO3)o2)cc1	-3	-14%	6%	-0.2	-0.3%	/
Nc1c(C(=O)N/N=C/c2cccnc2)oc2nc(-c3ccco3)cc(-c3ccco3)c12	-11	?	-22%	0.8	/	?
CCCCNc1oc(-c2ccc(OC)cc2)nc1S(=O)(=O)c1ccccc1	1	-3%	-10%	-0.3	-3.8%	1.0
CC1(C)CC(=O)C(C(c2ccc(F)cc2)C2C(=O)CC(C)(C)CC2=O)C(=O)C1	-7	-9%	10%	0.5	1.0%	6.7
O=C(c1ccco1)N1CCN(C(=O)c2ccccc2OCc2ccc(Cl)cc2)CC1	18	9%	5%	-0.9	-2.7%	/
O=S(=O)(Nc1nnc(C2CC2)s1)c1ccccc1	-13	0%	-1%	4.0	1.3%	3.5
CCN(CC(=O)Nc1c(F)cccc1F)C(=O)/C=C/c1ccc(Br)s1	14	4%[15.4 µM]	-7%	0.8	-11%	/
O=C(CNC(=O)c1ccco1)OCC(=O)c1ccc([N+](=O)[O-])cc1	-18	6%[15.4 µM]	10%	-0.7	-2.0%	-20
COc1ccc(NC(=O)CSc2nc(-c3ccc(F)cc3)c3cccc(C)c3n2)cc1	-11	/	/	-0.2	-1.1%	/
CN1CCN(NC(=O)CN(C)S(=O)(=O)c2cc(Cl)ccc2Cl)CC1	-22	-1%[15.4 µM]	-2%	0.0	/	11
Cc1ccc(C(=O)Cn2c3[n+](c4ccccc42)CC(O)CS3)cc1 (centres undefined)	28	10%[15.4 µM]	-4%	-1.4	0.1%	-0.2
Cc1cccc(N2CCN(C(=O)c3cc(S(=O)(=O)N4CCOCC4)cn3C)CC2)c1C	-2	-1%	8%	-0.1	1.4%	-12
CCOc1ccc(NC(=O)CN(C)C(=O)Cc2n[nH]c(=O)c3ccccc23)cc1OCC	-3	?	5%	0.8	0.1%	/
CC(C)c1ccc(CN2CCC(Oc3ccc(C(=O)N4CCCC4)cc3)CC2)cc1	13	?	1%	-0.2	-3.3%	-2.3
O=[N+]([O-])c1cnn2cc(Br)cnc12	-18	18%	-1%	0.5	-0.6%	-1.1
C/C(=N\NC(=O)c1cc(C)nc2ccccc12)c1cccs1	-14	-5%	4%	-0.6	-3.0%	3.2
CC(=O)c1cccc(NC(=O)c2sc(-n3nc(C)c(Cc4ccc5c(c4)OCO5)c3C)nc2C)c1	-21	/	/	1.2	-3.7%	/
O=C(NCC(c1ccco1)N1CCCC1)c1cc2cc(Cl)ccc2o1 (centres undefined)	48	6%	11%	0.7	-15%	/
CC1C/C(=N\NC(=S)NC(C)C)CC(C)(C)C1 (centres undefined)	17	-13%	15%	1.6	0.2%	-0.2
Nc1c2nc(-c3ccccc3Cl)[nH]c(=O)c2nc(=O)n1-c1ccccc1	26	0%	-9%	2.2	4.2%	-0.9
CCN(CC(=O)NCc1ccco1)S(=O)(=O)c1ccc(F)cc1	-11	5%[15.4 µM]	1%	0.6	/	3.6
Cc1ccc(Cl)cc1N1CCN(C(=O)c2ccc3c(c2)N(Cc2ccccc2F)C(=O)c2ccccc2S3(=O)=O)CC1	1	/	/	-0.5	-3.7%	/
COCCOC(=O)C1=C(C)OC(N)=C(C#N)C1c1cc2cccc(C)c2nc1Cl (centres undefined)	-8	2%[15.4 µM]	-23%	-0.1	/	0.9
CC(C)NC(=O)CC(=O)N/N=C/c1ccc(Br)cc1	-1	-54%[inhibitor]	7%	-0.3	-1.0%	0.6
Cc1[nH]c2ccc(C(=O)N3CCN(c4ccccc4Cl)CC3)cc2c1C	-1	25%	-24%	0.1	-3.0%	16
COc1ccc(CNc2nc(-c3ccccc3)nn2C(=O)c2ccccc2OC)cc1	3	/	/	0.9	-3.0%	/
CSc1sc(-c2ccnc(SCC(=O)C(C)(C)C)n2)c2c1C(=O)CC(C)(C)C2	2	-1%	-6%	2.0	6.3%	1.3
Cc1ccc(NC(=O)C(Cc2c[nH]c3ccccc23)NC(=O)OCC(C)C)cc1 (centres undefined)	-9	/	/	1.3	-2.6%	/
O=C(C1CCN(C2CC(=O)N(c3cccc(Cl)c3)C2=O)CC1)N1CCCC1 (centres undefined)	30	14%	0%	-0.3	2.3%	-1.6
C/C(=N\NC(=O)c1cccc([N+](=O)[O-])c1)c1ccncc1	-10	31%[15.4 µM]	/	0.5	/	-1.5
CN(C)CCNc1oc(-c2ccc(COc3ccc(Cl)cc3)o2)nc1C#N	-4	/	/	-0.5	?	/
COc1ccc2c(c1OC)C(=O)OC2n1c(O)c(N=NC(C)=O)c2ccccc21 (centres undefined)	6	3%[15.4 µM]	-10%	1.3	/	4.5
Cc1nc2c(C(=O)N3CCOCC3)cnn2c(C)c1Cc1ccc(Cl)cc1	19	24%	-3%	2.1	28µM*	1.7
Cc1ccc(C(=O)NNC(=O)c2ccoc2C)s1	16	-7%[15.4 µM]	9%	-0.5	/	/
C=CCN(c1ccccc1)S(=O)(=O)c1cc2c(cc1C)NC(=O)CO2	11	-20%	-6%	1.5	1.5%	2.2
COc1cc(/C=C/C(=O)N(C)CC(=O)Nc2ccccc2Br)cc2c1OCCO2	-8	-30%	-6%	0.3	-1.8%	/
CCOc1ccc(S(=O)(=O)Nc2cccc(C(=O)NCCCN3CCCC3=O)c2)cc1	0	24%	-1%	-0.3	-1.9%	/
Cc1ccc(-c2nc3ccc(Cl)cn3c2Cc2cccc(F)c2)cc1	43	/	/	2.4	?	/
COc1ccc(OCC2CCNCC2)cc1	30	-30%	6%	0.6	-2.0%	-1.7
